Assay outcomes from PubChem BioAssay.
Vaccinia Venus: vaccinia inhibition (Venus reporter); Vaccinia virus Venus reporter expression, fluorescence; Potency, µM (titrated, usually from 36.5 µM), inactives show at the highest dose activity change, negative = inhibition, most hits filed as inhibitors; 0.46% of 330,000 active; AID 720580; active means well fitted inhibition curve with a large enough effect; inconclusive means small, poorly fitted or top-dose-only effect; inactive means no such curve, though single readings can be large or run the other way; tested in A549 cells; also: nearly all actives have a fitted effect of over 30% in size; inactives centre near -10
Vaccinia mCherry: inhibitors of vaccinia virus infection (mCherry reporter signal); Vaccinia virus mCherry reporter infection, fluorescence; about a quarter of the inactives have no number; Potency, µM (series often up to 36.5 µM), without a hit: at the highest dose activity change, negative = inhibition, usual class: inhibitors; 0.63% of 310,000 active; AID 720579; active = well fitted inhibition curve with a large enough effect; inconclusive = small, poorly fitted or top-dose-only effect; inactive = no such curve, though single readings can be large or run the other way; tested in A549 cells; also: nearly all actives have a fitted effect of over 35% in size; inactives centre near -10
Numbers without * were called inactive; i = inactive; ? = inconclusive; nt = not tested or not shown; & = joins results of further samples; [ ] = dose if it differs, or a comment. % is scaled to controls: 0 for no effect and ±100 for the full control effect; potency is read from the fitted curve at half-maximal effect.

#	structure	Vaccinia Venus	Vaccinia mCherry
1	CN(CCOc1ccc(Cl)cc1)C(=O)C1CCN(C(=O)c2ccc(Cl)cc2)CC1	-24%	-9%
2	COc1ccc(S(=O)(=O)N(C)C[C@H]2Oc3ccc(NS(=O)(=O)c4cccs4)cc3CC(=O)N([C@H](C)CO)C[C@H]2C)cc1	-8%	-8%
3	CCOC(=O)c1sc(C)c2c(=O)n(CCCN3CCOCC3)cnc12	-16%	nt
4	Cc1cc(NC(=O)COC(=O)c2oc3c(ccc4ccccc43)c2C)no1	-6%	i
5	CCN(CC)S(=O)(=O)c1ccc2c(c1)nc(CCC(=O)O)n2C	20%	0%
6	CC(C)CNc1cc(NC2CCCCC2)c2c3c(onc13)-c1ccccc1C2=O	22%	78%[activator]
7	CCc1ccc(C2CC(=O)Nc3cc4c(cc32)OCO4)cc1 (centres undefined)	-8%	-11%
8	COc1ccc(C)cc1N(C)C(=O)c1sc2nc3n(c(=O)c2c1C)CCCCC3	-12%	-14%
9	O=C1CCCC(=O)C1Sc1ccc(Cl)cc1	-4%	-11%
10	Cc1ccccc1N1CCN(CCCCN2C(=O)C3CCCN3C2=O)CC1 (centres undefined)	-14%	-1%
11	CC1(c2ccccc2)NC(=O)N(NC(=O)COC(=O)c2cc(Br)ccc2O)C1=O (centres undefined)	-7%	i
12	COc1ccc(NC(=O)C2=CC=CN3CCS(=O)(=O)N=C23)c(OC)c1	-15%	-8%
13	Cc1ccc2nc(C3CCCCC3)c(Cc3ccccc3)n2c1	-14%	-14%
14	Cc1ccc(C(=O)N/C(=C\c2ccco2)C(=O)NCCCn2ccnc2)cc1	2%	-16%
15	O=C(COc1nncc2ccccc12)Nc1c(F)c(F)c(F)c(F)c1F	-12%	-5%
16	CN(CC(=O)Nc1ccc(Cl)c(C(F)(F)F)c1)C(=O)c1ccc2c(c1)OCCO2	-18%	-4%
17	O=[N+]([O-])c1ccccc1CSc1nc2ccccc2o1	-17%	i
18	Cc1ccc(S(=O)(=O)N(CCCO)Cc2cc3c(C)ccc(C)c3[nH]c2=O)cc1	-20%	?
19	COc1cc(/C=N/NC(=O)c2ccc(CN(C)S(=O)(=O)c3ccc(C)cc3)cc2)ccc1O	-22%	?
20	c1ccc(-c2cc(CSc3nc4ccccc4[nH]3)on2)cc1	?	nt
21	O=C(Nc1ccccc1-c1ccccc1)C(c1ccccc1)c1ccccc1	-4%	-15%
22	COc1cccc(-c2nn(C)c3sc(C(=O)N4CCOCC4)cc23)c1	-21%	i
23	Cc1ccc(NC(=O)CSc2nc3ccccc3c(=O)n2CCCC(=O)NCC2CCCO2)cc1 (centres undefined)	-7%	-5%
24	COc1ccc(-n2nnnc2C(c2cccs2)N2CCC3(CC2)C(=O)NCN3c2ccccc2)cc1 (centres undefined)	-8%	i
25	CN1C(=O)C(Cc2ccccc2)C(=O)N(C)C1=O	-3%	i
26	O=C(CNC(=O)OCc1ccccc1)NC1(C(=O)O)CCCC1	-8%	-9%
27	CCN(C(=O)c1cn(-c2cccc(OC)c2)c(=O)c2ccccc12)c1ccccc1C	-11%	-6%
28	O=C(CCC(=O)OCc1ccc([N+](=O)[O-])cc1Cl)Nc1ccccc1	-1%	-13%
29	CC(=O)c1ccc(S(=O)(=O)N2CCNCC2)cc1	-1%	1%
30	CCOC(=O)C1CCCN(C(=O)c2nn(-c3ccc(OC)cc3)c(=O)c3c2c2ccccc2n3C)C1 (centres undefined)	-2%	-8%

Next section; the last 6 above are carried over.
#	structure	Vaccinia Venus	Vaccinia mCherry
25	CN1C(=O)C(Cc2ccccc2)C(=O)N(C)C1=O	-3%	i
26	O=C(CNC(=O)OCc1ccccc1)NC1(C(=O)O)CCCC1	-8%	-9%
27	CCN(C(=O)c1cn(-c2cccc(OC)c2)c(=O)c2ccccc12)c1ccccc1C	-11%	-6%
28	O=C(CCC(=O)OCc1ccc([N+](=O)[O-])cc1Cl)Nc1ccccc1	-1%	-13%
29	CC(=O)c1ccc(S(=O)(=O)N2CCNCC2)cc1	-1%	1%
30	CCOC(=O)C1CCCN(C(=O)c2nn(-c3ccc(OC)cc3)c(=O)c3c2c2ccccc2n3C)C1 (centres undefined)	-2%	-8%
31	CCOc1ccc(N2C(=O)CN=C2Nc2ccccc2F)cc1	-6%	nt
32	O=C(Nc1cccc(C(F)(F)F)c1)c1cc(Br)cc2c1OCC2	-1%	i
33	CC(C)=CCOc1c2occc2cc2ccc(=O)oc12	-11%&-29%	-4%
34	N#Cc1c(N)n(-c2ccccc2)c(=O)c2cc([N+](=O)[O-])ccc12	-2%	-4%
35	CCN1CCN(S(=O)(=O)c2ccc(-c3cc(C)no3)s2)CC1	-1%	i
36	CC(C)(C)OC(=O)C[C@H]1C/C=C\C[C@H](CC(=O)N(CCO)Cc2ccccc2)C(=O)N[C@@H](Cc2ccccc2)COC1=O	-11%	-7%
37	Cc1ccc(Oc2nnc(-c3cccs3)c3ccccc23)cc1C	?	-21%
38	CCn1cc2nc(SCc3ccccc3Cl)n(Cc3ccc(OC)cc3)c(=O)c2n1	-13%	-27%
39	C#CCOCCOCCOCCNc1nc(N2CCN(C(=O)CCCCCCCCCCNC(=O)[C@H](CCC(=O)O)n3cc(CCCCCN)nn3)CC2)nc(N2CCN(C(=O)CCCCCCCCCCNC(=O)[C@@H]([C@H](C)O)n3cc(C)nn3)CC2)n1	-10%	i
40	CC(Oc1ccccc1)C(=O)NC1C(=O)N2C(C(=O)O)C(C)(C)S[C@@H]12 (some centres undefined)	40%[activator]	11%
41	CCN(CC)CCN(C(=O)c1ccc(S(=O)(=O)N2CCOCC2)cc1)c1nc2cc3c(cc2s1)OCCO3	-13%	-17%
42	COc1ccc(C2CCCCCN2C(=O)C2CCN(S(=O)(=O)c3cccc(C(C)=O)c3)CC2)cc1 (centres undefined)	-17%	i
43	CCOc1ccc(CCNC(=O)CN2C(=O)COc3ccc(S(=O)(=O)N4CCC(C)CC4)cc32)cc1	-15%	-13%
44	COc1ccc(Cn2c(C(F)(F)F)ccc(C(N)=O)c2=O)cc1	-2%	i
45	CC1(C)Cc2c(cnn2-c2cccc(F)c2)C(NC(=O)c2cc[n+]([O-])cc2)C1 (centres undefined)	-9%	-4%
46	Cc1ccc(C(=O)CSc2ccc(-c3ccccc3)nn2)cc1	-3%	i
47	Oc1ccc(/C=N/N2CCCCC2)cc1O	-15%	?
48	CCN(CC)C(=O)COc1ccc(-c2nnc(Nc3ccc(OC)c(C(=O)NC)c3)c3ccccc23)cc1	0%[7.34 µM]	-5%[7.34 µM]
49	O=C(c1cc(-c2ccncc2)nc2ccccc12)N1CCN(Cc2ccccc2)CC1	-15%	-8%
50	CCOc1cccc2sc(N(CCN(C)C)C(=O)c3ccc4ccccc4c3)nc12	-23%	-4%
51	COc1ccc(/C=N/n2cnc3c([nH]c4ccccc43)c2=O)cc1CO	-4%	-7%
52	CN1CCC(=O)N([C@H](CO)c2ccccc2)CC1	-13%	i
53	Cc1cc(C)cc(Oc2nc(-c3ccccc3)cc(C)c2S(C)(=O)=O)c1	-26%	nt
54	CCc1c(C)sc(NC(=S)Nc2cccnc2)c1C(=O)OC	0%	-13%
55	CSc1ccc(OC2(C)CCN(Cc3ccc(-c4ccccn4)cc3)C2)cc1 (centres undefined)	1%	2%
56	O=C(NNC1=NS(=O)(=O)c2ccccc21)C1CC(=O)N(c2ccccc2)C1 (centres undefined)	0%	i
57	O=S(=O)(c1ccccc1)c1nc(-c2ccc(F)cc2)oc1NCc1ccccc1	-15%	-20%
58	CC(=O)NC(=S)Nc1ccc(S(=O)(=O)Nc2nc(C)cc(C)n2)cc1	0%	12%
59	O=C(NCc1ccccc1)C(=O)NCC(c1cccs1)S(=O)(=O)c1cccs1 (centres undefined)	-6%	-13%
60	Cc1ccc(S(=O)(=O)N2CCCCC2)cc1NC(=O)C1CC(=O)N(c2ccc3c(c2)OCCO3)C1 (centres undefined)	-15%	-4%
61	CCCCCN1C(=O)c2cc(OC)ccc2[C@@]2(C(=O)OCC)Cc3cc(OC)ccc3[C@@H]12	?	?
62	O=C(NNC(=O)c1sc2cccc(Cl)c2c1Cl)Nc1ccccc1	-18%	nt
63	NC(=O)[C@@H]1CCNc2c(I)cc([N+](=O)[O-])cc2C(=O)N[C@@H](CCC(=O)O)C(=O)N[C@@H](CO)C(=O)N1	-9%	-15%
64	CCOC(=O)c1nc2ccccc2c(=O)n1-c1ccc(C)cc1C	-18%	-24%
65	Cc1cc(NS(=O)(=O)N(C)C)ccc1C(C)C	-7%	-4%
66	Cc1ccc(CN2CCSc3ccc(C(=O)NCCc4ccccc4)cc32)cc1	-8%	-9%
67	COc1ccccc1-c1nn2c(=O)cc(C)nc2s1	-19%	-27%
68	CCOc1ccc(CCNC(=O)c2cn(C)c3ccc(S(=O)(=O)N4CCCCCC4)cc3c2=O)cc1OCC	-3%	-18%
69	CCCS(=O)(=O)c1c(S(=O)(=O)CCC)c2c(N)cccn2c1C(=O)c1ccc(OC)cc1	-6%	1%
70	COc1cccc(C(=O)NC(=S)Nc2ccc(Cl)c(C(=O)O)c2)c1	-10%	nt
71	O=C(C1CCCN(c2ncnc3c2nc2n3CCCCC2)C1)N1CCN(c2ccc(F)cc2)CC1 (centres undefined)	-21%	-5%
72	COC(=O)C(C(=O)OC)c1ccccc1[N+](=O)[O-]	-2%	-6%
73	Cc1ccc(NC(=O)CN(C)CC(=O)Nc2ccccc2C(=O)Nc2ccccc2)cc1	2%	?
74	CC1(C)CC(=O)c2cnc(NC(=O)c3ccco3)nc2C1	-10%	nt
75	CC(C)CCNC(=O)c1ccc2c(c1)NC(=O)C(CS(=O)(=O)Cc1cccc(Br)c1)N2 (centres undefined)	21%	i
76	C/C(=N\Nc1nc(C)cc(-c2ccccc2)n1)c1ccc(C)o1	-20%	?
77	Cc1cccc(NC(=O)N2CCC(CN3CCc4ccccc4C3)CC2)c1C	-12%	-18%
78	CC(Oc1ccc(-c2ccccc2)cc1)C(=O)N/N=C/c1cccnc1 (centres undefined)	-18%	-29%
79	O=C(COC(=O)/C=C/c1cccc(Br)c1)NCCc1ccccc1	-13%	i
80	CCC1(C)Cc2ccccc2/C(=C/C(=O)N2CCCCC2)N1 (centres undefined)	-9%	nt
81	COc1ccc(-c2cc(C(=O)N(C)Cc3ccccc3F)c3ccccc3n2)cc1OC	?	-25%
82	CC(C)[C@H](NC(=O)OCc1ccccc1)C(=O)OCC(=O)N1C(C)CCCC1C (some centres undefined)	3%	-17%
83	CCCCC(=O)Nc1cccc(C(=O)Nc2ccccc2C(=O)O)c1	-4%	-6%
84	O=C(Nc1ccc(F)cc1)c1ccc(S(=O)(=O)N2CCOCC2)o1	-3%[7.34 µM]	-11%[7.34 µM]
85	CCn1c(SCC(=O)NC2CCCC2)nc2c1c(=O)n(C)c(=O)n2C	-7%	-7%
86	O=C(/C=C/c1ccccc1)NNc1ccc(Cl)cc1	2%	-15%
87	O=C(CSc1nnc(-c2ccccc2Cl)o1)N1CCOCC1	-8%	-15%
88	COCCNC(=O)C1(C)CCCN(C(=O)c2ccccc2F)C1 (centres undefined)	5%	23%
89	COc1ccc(OC(=O)c2ccc(Cl)cc2)c(C(C)=O)c1	-17%	-14%
90	COc1ccc(Br)cc1CN(C)C(=O)CNC(=O)c1ccc2ccccc2c1	-15%	-5%

Sorted by molar mass (low to high): part of the list above
#	structure	Vaccinia Venus	Vaccinia mCherry
80	CCC1(C)Cc2ccccc2/C(=C/C(=O)N2CCCCC2)N1 (centres undefined)	-9%	nt
76	C/C(=N\Nc1nc(C)cc(-c2ccccc2)n1)c1ccc(C)o1	-20%	?
73	Cc1ccc(NC(=O)CN(C)CC(=O)Nc2ccccc2C(=O)Nc2ccccc2)cc1	2%	?
90	COc1ccc(Br)cc1CN(C)C(=O)CNC(=O)c1ccc2ccccc2c1	-15%	-5%

More entries follow:
#	structure	Vaccinia Venus	Vaccinia mCherry
91	CN1CCN(c2ncnc3ccc(Br)cc23)CC1	-12%	-7%
92	COc1ccc(CNC(=O)/C=C/c2ccco2)cc1OC	-4%	i
93	CCn1ccc2cc(S(=O)(=O)N3CCC(C(=O)NCCc4ccc(C)cc4)CC3)ccc21	-8%	-18%
94	Cn1nc(C(=O)NC2=NCCS2)ccc1=O	3%	nt
95	CC1(C)Cc2c(sc3c2C(=O)N(c2ccccc2)C2=NCCN23)CS1	-12%	nt
96	Cc1ccc(C)c(C(=O)COC(=O)c2cc([N+](=O)[O-])ccc2N2CCOCC2)c1	-7%	-26%
97	COc1ccc(OC)c(NC(=O)Cn2cc(C(=O)c3ccccc3)c3ccccc32)c1	-19%	-25%
98	COC(=O)CN1C(=O)[C@H]2[C@@H](c3ccc(C)o3)N3C(=O)CN(Cc4ccccc4)C(=O)[C@@]3(Cc3ccccc3)[C@H]2C1=O	-27%	i
99	COc1ccc(-c2nc(CN3CCC(C(=O)NCCCN4CCN(c5ccccc5F)CC4)CC3)c(C)o2)cc1OC	-6%[7.34 µM]	-7%[7.34 µM]
100	COc1ccc(CC(=O)Nc2ccc3c(c2)CCC3)cc1S(=O)(=O)N1CCOCC1	-12%	-3%
101	CCCCN1C(N)=NC[C@@H]1c1ccccc1	-12%	-8%
102	C=Cc1ccc(Cn2c(=O)n(C)c(=O)c3sccc32)cc1	-3%	-10%
103	O=C(Nc1ccc(CN2CCCCC2)cc1)c1cccc(F)c1	-3%	i
